Assay outcomes from PubChem.
FGF22 binding: binders of recombinant human FGF22 by thermal shift | 340,000 tested, 1.5% active | Q9HCT0 | calls only at 9.99 µM | SYPRO orange fluorescence; percent of sucrose octasulfate shift, DMSO zero;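 active means melting point raised past a set limit in the mean and every replicate; three in four hits are not shown here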
Target sequence (Q9HCT0 whole entry, looked up): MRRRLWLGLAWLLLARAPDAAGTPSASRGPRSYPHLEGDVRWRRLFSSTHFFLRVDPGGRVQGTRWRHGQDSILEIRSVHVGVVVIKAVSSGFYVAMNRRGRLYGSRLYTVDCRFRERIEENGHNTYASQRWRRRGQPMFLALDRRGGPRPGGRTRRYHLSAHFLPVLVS
Beta cell apopt: beta cell apoptosis inhibition; 300,000 tested, 0.8% active; AID 435005; protection from apoptosis, % (test concentration not listed); INS-1E cytokine-induced death, ATP luminescence, 48 h; percent of positive-control rescue, neutral wells zero;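 active means all replicates at 75% or more, or half of them and the mean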;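 further: 0% = cytokine-treated negative control wells and 100% = positive control rescue; higher means more ATP so stronger rescue from cytokine killing; wells of about 40 µL received 100 nL stock; the first replicate is given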
rRNA inh HTS: selective bacterial rRNA inhibition in E. coli; E. coli WT GFP vs humanized-ribosome RFP mutants, fluorescence, 24 h; stronger effect = lower value; DMSO median 0, no signal -100; GFP signal change (wild-type ribosome), % (no concentration beside the values); 350,000 tested, 1.6% active;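 active means significant combined selectivity score with lowered wild-type GFP, culture density cut under 30%, mutant RFP and density less affected; inactive means any of these conditions unmet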; further: one replicate is shown; some compounds called inactive have numbers as strong as hits
Bfl-1 A1 inh: inhibitors of the anti-apoptotic protein A1, read as caspase activation | 330,000 tested, 0.066% active | MEF A1-2A-BIM cells, Caspase-Glo 3/7 luminescence, 3 h; percent of clofoctol response, vehicle zero | caspase activation, % (no concentration beside the values);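 active means over half of replicate activation scores above 10%, or exactly half above 10 with the replicate mean above 10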;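 further: wells of about 30 µL received 50 nL stock; many hits fall short of the cut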
UCH37 inh: inhibitors of human deubiquitinating enzyme UCH37 | Q9Y5K5 | purified proteasome/UCH37, Ub-AMC cleavage fluorescence | inhibition, % (concentration not given with the values) | 330,000 tested, 0.33% active | AID 588478;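 active means mean of two replicates above 20%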;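 further: 0% = compound-free wells with enzyme and 100% = wells lacking proteasome; stock transfer was 100 nL into about 20 µL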
Target sequence (Q9Y5K5 whole entry, looked up): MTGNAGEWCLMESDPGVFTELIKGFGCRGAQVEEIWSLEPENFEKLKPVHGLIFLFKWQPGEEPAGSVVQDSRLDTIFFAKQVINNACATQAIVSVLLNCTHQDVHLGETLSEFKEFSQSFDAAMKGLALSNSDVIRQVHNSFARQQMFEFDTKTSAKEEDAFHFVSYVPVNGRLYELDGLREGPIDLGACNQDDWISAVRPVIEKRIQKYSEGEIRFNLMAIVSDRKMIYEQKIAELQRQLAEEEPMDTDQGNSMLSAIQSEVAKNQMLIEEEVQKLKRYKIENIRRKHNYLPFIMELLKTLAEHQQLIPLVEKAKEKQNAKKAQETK
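Signal – fluorescence, ex 355 nm, em 460 nm · System – Proteasome-bound UCH37 · Input – 0.15 nM proteasome as dispensed · Timing – 30 min preincubation with enzyme, 25 min cleavage at room temperature · Read-out basis – percent inhibition of cleavage signal versus uninhibited and no-proteasome wells · Medium – Tris-HCl pH 7.4 with ATP-MgCl2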
E coli growth: E. coli growth inhibition | Escherichia coli growth, OD600, 23 h; stronger effect = lower value | OD600 absorbance (test concentration not listed) | 330,000 tested, 0.21% active | AID 1053175;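 active means OD600 absorbance below the run mean of sample wells minus 3.6 SD, in any replicate, cut at about 0.56 in these data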;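 further: stock transfer was 300 nL into about 60 µL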
AF4-AF9 inh: blocks AF4 peptide binding to human AF9 | P42568 | AID 651704 | 350,000 tested, 0.47% active | AlphaScreen, biotin-AF4 peptide binding to FLAG-AF9 | inhibition, % at 10 µM;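 active means every replicate reaching a set inhibition limit, whatever the replicate mean, cut at about 25% in these data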;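 further: 0% = plate neutral control median and 100% = total signal loss; the record names both 10 and 1 µM as test concentration; the first replicate is given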
Target sequence (P42568 whole entry, looked up): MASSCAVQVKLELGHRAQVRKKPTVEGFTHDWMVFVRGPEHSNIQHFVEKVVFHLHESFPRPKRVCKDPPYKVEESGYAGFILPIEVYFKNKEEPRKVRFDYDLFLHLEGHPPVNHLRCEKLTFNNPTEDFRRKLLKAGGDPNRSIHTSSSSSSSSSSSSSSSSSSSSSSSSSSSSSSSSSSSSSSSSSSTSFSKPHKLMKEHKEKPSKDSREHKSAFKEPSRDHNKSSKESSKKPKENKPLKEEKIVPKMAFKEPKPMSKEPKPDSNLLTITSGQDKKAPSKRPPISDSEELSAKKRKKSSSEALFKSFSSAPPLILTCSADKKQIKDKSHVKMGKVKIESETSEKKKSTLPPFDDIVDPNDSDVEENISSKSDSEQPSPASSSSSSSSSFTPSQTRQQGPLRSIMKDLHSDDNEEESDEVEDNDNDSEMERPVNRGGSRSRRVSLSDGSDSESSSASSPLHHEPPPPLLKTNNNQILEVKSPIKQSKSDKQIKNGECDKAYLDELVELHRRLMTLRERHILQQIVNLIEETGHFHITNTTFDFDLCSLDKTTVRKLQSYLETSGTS
T cruzi inh: T. cruzi replication inhibition; 300,000 tested, 1.4% active; inhibition, % (no concentration beside the values); AID 1885; T. cruzi beta-gal in NIH3T3, luminescence, 90 h;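 active means mean inhibition across valid replicates above about 55%, limit read from the data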;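 further: signal also drops with host cell toxicity which is not excluded here; 0% = plate median of DMSO wells and 100% = zero luminescence signal; higher percent means less beta-gal luminescence so fewer parasites; stock transfer was 50 nL into about 50 µL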
rRNA inh HTS OD600: also measured in rRNA inh HTS; calls as there; OD600 change, %; measured here: OD600 growth;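 optical density of the mix in the first replicate; 0 = DMSO median and -100 = no signal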
rRNA inh HTS RFP: recorded beside rRNA inh HTS, whose call it bears; RFP signal change, %; measured here: RFP humanized mutant strains;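 first replicate; 0 = DMSO median and -100 = no signal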
* = called active by the depositor; i = inactive; · = no result given.

SMILES	FGF22 binding	Beta cell apopt	rRNA inh HTS	rRNA inh HTS OD600	rRNA inh HTS RFP	Bfl-1 A1 inh	UCH37 inh	E coli growth	AF4-AF9 inh	T cruzi inh
Cc1ccc(N(C(=O)CS(=O)CC(=O)Nc2ccc(F)cc2)C(C(=O)NC2CCCCC2)c2ccco2)cc1 (stereo not given)	i	-2	3	21	15	0.1	3.3	0.66	-6.4	-9
COc1ccc(OC)c(-n2nnnc2SCC(=O)Nc2cc(C)ccc2OC)c1	·	-9	·	·	·	-1.1	0.6	0.76	·	2
CC(NC(=O)CCNS(=O)(=O)c1ccc2c(c1)c(=O)n(C)c(=O)n2C)c1ccccc1 (stereo not given)	·	-1	·	·	·	-0.7	3.1	0.66	·	2
Cc1ccc(-c2csc3nc[nH]c(=O)c23)cc1C	i	1	12	6	5.5	0.5	5.0	0.66	-7.7	-18
Cc1nnnn1-c1cccc(C(=O)O)c1	·	·	·	·	·	-1.2	5.1	0.69	·	-20
O=C(CNC(=O)c1nc[nH]c1C(=O)N1CCN(c2ccccc2)CC1)OCc1ccccc1	i	-1	10	1	3.1	0.1	2.2	0.66	2.2	3
CC(=O)Nc1ccc(SCC(=O)c2cc(C)n(C)c2C)cc1	·	0	·	·	·	0.2	43*	0.69	·	3
COc1ccc(C2CC(=O)N(CCCN(C)CCc3ccc(OC)c(OC)c3)C2)cc1 (stereo not given)	i	-12	23	18	1.7	-0.1	4.9	0.71	-6.6	64*
CC(C)c1ccccc1NC(=O)C1CN(S(=O)(=O)c2ccccc2)CCN1S(=O)(=O)c1ccccc1 (stereo not given)	i	3	-6	-5	-2.5	-0.7	4.6	0.67	-4.1	10
CCOc1ccc(-c2nnc(-c3ccco3)o2)cc1	·	1	·	·	·	-6.1	-17	0.65	·	-15
CCN(CC)CCN1C(=O)C2C3c4ccccc4C(c4ccccc43)C2C1=O (stereo not given)	·	-4	·	·	·	0.7	4.3	0.69	·	9
Cc1cccc(NC(=O)Nc2cccc3ccccc23)c1	i	-11	9	4	-0.9	-1.2	2.1	0.71	-4.7	7
Cc1ccc(OCc2nnc(SCC(=O)NCc3ccco3)n2C)cc1	·	-5	·	·	·	-0.6	4.1	0.76	·	4
CC(=O)N1CCOc2ccc(S(=O)(=O)Nc3cccc(C)n3)cc21	i	-2	-2	-1	-2.5	0.2	-0.8	0.68	0.8	2
O=c1cc(/N=C/c2coc3c(ccc4ccccc43)c2=O)[nH]c(=S)[nH]1	i	5	3	0	-5.3	-0.3	·	·	0.4	-14
CCc1ccc(OCc2nnc(SCCN3CCOCC3)n2CC)cc1	·	0	·	·	·	0.5	0.1	0.65	·	19
Cc1ccccc1NC(=S)N1CCC(NC(=O)c2ccco2)CC1	i	2	13	7	-3.4	0.4	-0.2	0.64	-1.7	-3
O=C1C(Cl)=C(N2CCOCC2)C(=O)N1c1cccc(C(F)(F)F)c1	i	-17	12	6	3.0	-1.7	7.6	0.67	2.2	-7
C=CCNC(=O)c1cccc2c1C(=O)c1ccc(N3CCOCC3)cc1S2(=O)=O	i	-2	18	24	2.4	-0.3	6.8	0.72	-0.7	·
CC(C)c1nc(NCc2ccccc2)c(C#N)c2c1CCCC2	·	-6	·	·	·	-0.5	-40	0.76	·	26
CCN(CC(=O)Nc1cc(Cl)ccc1C)C(=O)c1oc2ccc(OC)cc2c1C	i	-5	-4	-15	-2.5	0.2	·	·	-22	30
Cc1ccc(C)c(N2CCN(C(=O)CCS(=O)(=O)c3ccc4c(c3)CCN4C(=O)C3CC3)CC2)c1	i	4	-2	4	1.7	-0.1	-2.6	0.67	-0.5	5
c1ccc2cc(CSCc3nc4ccccc4[nH]3)ccc2c1	i	3	-45	-42	-1.1	0.5	0.5	0.56	-3.4	2
CCOc1ccc2nc(SC3CC(=O)N(c4cccc(OC)c4)C3=O)sc2c1 (stereo not given)	·	7	·	·	·	-0.8	-0.2	0.71	·	-1
Cc1cc(OCC(=O)N2CCCC2)cc(C)c1Cl	·	7	·	·	·	-0.1	3.9	0.71	·	2

More results follow.
SMILES	FGF22 binding	Beta cell apopt	rRNA inh HTS	rRNA inh HTS OD600	rRNA inh HTS RFP	Bfl-1 A1 inh	UCH37 inh	E coli growth	AF4-AF9 inh	T cruzi inh
COc1cc(/C(C#N)=C/c2ccccc2)c([N+](=O)[O-])cc1OC	·	6	·	·	·	-1.5	2.9	0.7	·	-18
NC(=O)C1CCN(S(=O)(=O)c2cc3c4c(c2)CCN4C(=O)CC3)CC1	i	-4	7	12	-1.5	0.1	3.5	0.67	-18	-14
CCCCn1nnc(NC(=S)NC(=O)c2cccs2)n1	i	5	1	1	1.7	-1.9	2.0	0.63	-3.7	18
CCCCNc1c(-c2cccc(-c3cc(C(C)=O)cs3)c2)nc2cc(C)ccn12	·	2	·	·	·	-1.8	3.8	0.72	·	27
O=[N+]([O-])c1cccc(S(=O)(=O)NCCCn2ccnc2)c1	i	-1	5	7	-3.2	1.4	0.5	0.63	9.2	-3
Cc1cc2ncn(/N=C/c3ccc(-c4ccccc4)o3)c2cc1C	·	-3	8	15	0.8	0.2	·	·	·	14
Cc1cc(-c2nnc(-c3ccccc3)c(-c3ccccc3)n2)c(C)o1	·	-1	·	·	·	0.2	4.9	0.69	·	13
O=C(COC(=O)CC1CCCC1)Nc1ccc(OC(F)F)cc1	i	0	5	10	10	0.7	2.1	0.64	-6.5	-2
CCOC(=O)C1C(c2cccnc2)NC(=O)NC1(O)C(F)(F)F (stereo not given)	i	-3	13	-4	2.4	0.2	-1.1	0.69	-1.2	-2
CCOC(=O)Cc1nnc(NC(=O)CSc2nnc3c4ccccc4n(C(C)C)c3n2)s1	·	0	·	·	·	0.3	8.3	0.78	·	-5
CCOc1ccc(C(=O)CC(C(=O)O)N2CCN(Cc3ccccc3)CC2)cc1 (stereo not given)	·	-8	·	·	·	0.4	0.5	0.62	·	·
NC1=NC(c2ccccc2Cl)n2c(nc3ccccc32)N1 (stereo not given)	·	-5	·	·	·	0.1	3.8	0.67	·	7
O=C1c2ccccc2C(=O)N1CCCCSc1nc2ccccc2c(=O)n1CCCN1CCOCC1	i	0	-15	-21	-0.9	1.2	3.3	0.71	8.2	28
Cc1ccc(/C=N/NC(=O)c2cccc(S(=O)(=O)Nc3cccc(Cl)c3)c2)o1	i	-4	-21*	-0.5*	5.8*	-4.6	·	·	0.3	5
OCCn1nc2c3ccccc3nc-2n(-c2ccccc2)c1=S	·	1	·	·	·	-0.7	0.5	0.71	·	-3
O=C(C1CC(=O)N(c2ccc(F)cc2)C1)N1CCCCCC1 (stereo not given)	i	-7	2	8	-3.8	0.4	0.9	0.69	7.0	-24
COCCSc1nnc(NC(=O)c2ccc(OC)c([N+](=O)[O-])c2)s1	i	-4	5	10	-1.8	0.4	1.2	0.68	-1.5	-12
CC1CCCC(NC(=O)COC(=O)c2ccc(Br)o2)C1C (stereo not given)	i	-3	0	6	0.9	-1.0	0.4	0.68	-3.5	·
Cc1ccc(NC(=O)C(C)SCc2ccccc2)cc1 (stereo not given)	i	-6	6	-6	-7.2	0.8	2.4	0.7	-1.3	-10
CCC(OC(=O)c1cccs1)C(=O)NCc1ccco1 (stereo not given)	·	0	·	·	·	-1.3	-1.0	0.69	·	-15
CSCCC(NS(=O)(=O)c1ccc(Cl)cc1)C(=O)OCc1cccc(Cl)c1 (stereo not given)	i	·	-30	-41	9.0	-1.4	7.1	0.68	0.7	-19
CCOC(=O)CNC(=O)OC1CCN2Cc3ccccc3N=C12 (stereo not given)	i	-7	10	8	-6.2	1.4	5.1	0.67	-3.5	-11
O=C(CCC(=O)NCCO)NCCO	i	-2	13	8	1.5	-0.7	3.0	0.74	-2.1	-10
CC(C)COc1cccc(C(=O)Nc2cc(S(=O)(=O)N3CCOCC3)ccc2N2CCCC2)c1	i	·	-8	-12	-3.6	·	0.9	0.73	2.3	·
CCOc1cc(S(=O)(=O)NCCCN2CCOCC2)ccc1F	i	-10	-1	1	0.2	-0.4	-4.1	0.68	-4.0	2
Cc1nnc2sc(-c3cccc4ccccc34)nn12	·	-4	·	·	·	0.2	-24	0.62	·	-2
Cc1cc(C(=O)OCC(=O)N(C)c2ccccc2)c2ccccc2n1	i	0	-13	-10	0.2	-0.5	-3.1	0.67	2.3	·
CCn1c(O)c(/C=N/NC(=O)c2ccncc2)c(=O)n(CC)c1=S	i	·	12	5	52	·	-2.1	·	-1.5	11
CCN(CC)CCNC(=O)c1cc2c(-c3ccc(Cl)cc3)nn(C)c2s1	i	·	-26	-25	-1.2	·	-179	0.74	14	40

Entries shown so far that contain a furan ring, fused or not, in the order listed:
SMILES	FGF22 binding	Beta cell apopt	rRNA inh HTS	rRNA inh HTS OD600	rRNA inh HTS RFP	Bfl-1 A1 inh	UCH37 inh	E coli growth	AF4-AF9 inh	T cruzi inh
Cc1ccc(N(C(=O)CS(=O)CC(=O)Nc2ccc(F)cc2)C(C(=O)NC2CCCCC2)c2ccco2)cc1 (stereo not given)	i	-2	3	21	15	0.1	3.3	0.66	-6.4	-9
CCOc1ccc(-c2nnc(-c3ccco3)o2)cc1	·	1	·	·	·	-6.1	-17	0.65	·	-15
Cc1ccc(OCc2nnc(SCC(=O)NCc3ccco3)n2C)cc1	·	-5	·	·	·	-0.6	4.1	0.76	·	4
Cc1ccccc1NC(=S)N1CCC(NC(=O)c2ccco2)CC1	i	2	13	7	-3.4	0.4	-0.2	0.64	-1.7	-3
CCN(CC(=O)Nc1cc(Cl)ccc1C)C(=O)c1oc2ccc(OC)cc2c1C	i	-5	-4	-15	-2.5	0.2	·	·	-22	30
Cc1cc2ncn(/N=C/c3ccc(-c4ccccc4)o3)c2cc1C	·	-3	8	15	0.8	0.2	·	·	·	14
Cc1cc(-c2nnc(-c3ccccc3)c(-c3ccccc3)n2)c(C)o1	·	-1	·	·	·	0.2	4.9	0.69	·	13
Cc1ccc(/C=N/NC(=O)c2cccc(S(=O)(=O)Nc3cccc(Cl)c3)c2)o1	i	-4	-21*	-0.5*	5.8*	-4.6	·	·	0.3	5
CC1CCCC(NC(=O)COC(=O)c2ccc(Br)o2)C1C (stereo not given)	i	-3	0	6	0.9	-1.0	0.4	0.68	-3.5	·
CCC(OC(=O)c1cccs1)C(=O)NCc1ccco1 (stereo not given)	·	0	·	·	·	-1.3	-1.0	0.69	·	-15

Entries of single compounds, quoted from the list. Order of screens: FGF22 binding	Beta cell apopt	rRNA inh HTS	rRNA inh HTS OD600	rRNA inh HTS RFP	Bfl-1 A1 inh	UCH37 inh	E coli growth	AF4-AF9 inh	T cruzi inh
Cc1nnc2sc(-c3cccc4ccccc34)nn12 reads ·	-4	·	·	·	0.2	-24	0.62	·	-2
O=C(CCC(=O)NCCO)NCCO reads i	-2	13	8	1.5	-0.7	3.0	0.74	-2.1	-10

The list is partial; rates above refer to the full screens.
